From PubChem BioAssay
Lamin A splicing: changes lamin A minigene splicing in HeLa cells; Potency, µM (doses to about 46.1 µM), without a hit: at the highest dose ratio change, negative = inhibition, actives largely listed as inhibitors; hit rate 0.01% among 200,000; HeLa LMNA splicing GFP/RFP minigene ratio, 48 h; active = well fitted inhibition curve with a large enough effect in the signal ratio, with a control signal flat, not every such curve was filed as active; inconclusive = small, poorly fitted or top-dose-only effect, or effect the other way, or a change in a side signal; the % refers to the signal ratio; note: % is set by controls: 0 for no effect and ±100 for the full control effect
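S3 HeLa cells stably expressing lamin A-EGFP splicing minigene plus DsRed2, 600 cells/well, 48 h compound exposure at 37C. Laser-scanning cytometry; analysed as GFP (500-530 nm)/RFP (575-640 nm) total intensity ratio; 0.5% DMSO vehicle.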
RECQ1 helicase: inhibitors of human RECQ1 DNA helicase; P46063; RECQ1 DNA unwinding, red fluorescence kinetic read; Potency, µM (top dose mostly 57.3 µM), inactives show at the top dose activity, negative = inhibition, actives largely listed as inhibitors; hit rate 0.54% among 240,000; AID 2549; active = well fitted curve in the direction sought with a large enough effect; inconclusive = small, poorly fitted or top-dose-only effect, or another doubt; inactive = no such curve, though single readings can be large; an effect the other way counts as inactive or inconclusive;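 note: plate controls were vehicle for no effect and no enzyme for full effect; nearly all actives have a fitted effect of over 30% in size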
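RECQ1T1 50 nM; forked duplex (20 bp + 30-nt ss tails) 200 nM, ATP 2 mM final; pH 8.0, 2 mM MgCl2, 2.5 ug/ml poly(dI-dC); 15 min compound preincubation; discontinuous kinetic read over 2 h at RT.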
SMN2 splice up: SMN2 splice variant enhancement | HEK293 SMN2-luciferase splicing reporter, luminescence, 30-36 h | Potency, µM (highest dose often 46.1 µM), without a hit: top-dose activity change, positive = activation, usual class: activators | hit rate 2.8% among 210,000 | AID 1458; active = well fitted curve in the direction sought with a large enough effect; inconclusive = small, poorly fitted or top-dose-only effect, or another doubt; inactive = no such curve, though single readings can be large; an effect the other way counts as inactive or inconclusive; note: % of control where 0% means no effect; nearly all actives have a fitted effect of over 55% in size
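HEK293 cells carry an SMN2 minigene-luciferase reporter in which exon 7 inclusion puts luciferase in frame. Cells were seeded at 2000 cells/well, attached for 10-12 hours, then exposed to compounds for 30-36 hours at 37C before ONE-Glo luminescence.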
KDM4E inh: blocks human JMJD2E demethylase activity. Potency, µM (doses to about 57.1 µM), for inactives: at the highest dose activity change, negative = inhibition, most hits filed as inhibitors. B2RXH2. JMJD2E catalytic domain, FDH-coupled NADH fluorescence (FDH is formaldehyde dehydrogenase). hit rate 1.6% among 230,000. AID 2147;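 note: 0% = wells with enzyme and -100% = buffer wells without enzyme; nearly all actives have a fitted effect of over 50% in size; many of its hits are not listed in these tables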
Target sequence (B2RXH2 1-337 limits assumed): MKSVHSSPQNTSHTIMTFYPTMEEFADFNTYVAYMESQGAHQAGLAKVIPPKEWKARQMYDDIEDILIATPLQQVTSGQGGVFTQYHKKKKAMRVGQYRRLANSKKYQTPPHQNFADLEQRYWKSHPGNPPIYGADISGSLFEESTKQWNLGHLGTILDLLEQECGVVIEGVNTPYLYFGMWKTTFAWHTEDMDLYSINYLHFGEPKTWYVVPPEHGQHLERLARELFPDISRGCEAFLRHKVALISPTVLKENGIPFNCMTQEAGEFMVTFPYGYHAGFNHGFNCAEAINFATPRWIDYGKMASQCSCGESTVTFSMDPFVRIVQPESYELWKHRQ
ALDH1A1 inh: ALDH1A1 (human) enzyme inhibition | Purified ALDH1A1, NADH fluorescence, propionaldehyde substrate | Potency, µM (top dose mostly 75.3 µM), for the others: at the top dose activity, negative = inhibition, usual class: inhibitors | hit rate 7.3% among 220,000 | AID 1030;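 note: plate controls were no enzyme wells and a reference inhibitor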
Target sequence (P00352 whole entry, looked up): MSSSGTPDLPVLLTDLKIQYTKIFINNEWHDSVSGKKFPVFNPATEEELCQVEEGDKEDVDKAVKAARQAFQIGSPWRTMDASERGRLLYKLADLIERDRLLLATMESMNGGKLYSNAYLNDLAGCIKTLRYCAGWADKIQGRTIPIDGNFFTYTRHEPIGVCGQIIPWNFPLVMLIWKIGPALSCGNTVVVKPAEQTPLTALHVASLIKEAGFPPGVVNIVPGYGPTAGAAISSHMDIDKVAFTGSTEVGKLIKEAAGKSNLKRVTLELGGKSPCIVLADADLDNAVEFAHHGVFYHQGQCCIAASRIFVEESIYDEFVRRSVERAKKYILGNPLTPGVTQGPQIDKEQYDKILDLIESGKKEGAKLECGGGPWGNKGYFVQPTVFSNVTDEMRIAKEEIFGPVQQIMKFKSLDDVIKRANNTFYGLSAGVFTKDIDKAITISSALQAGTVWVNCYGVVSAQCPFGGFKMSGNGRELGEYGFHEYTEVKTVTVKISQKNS
RGS12 GoLoco inh: blocks human Gai1 binding to RGS12 GoLoco peptide, red readout; Potency, µM (doses to about 61.6 µM), inactives show top-dose activity, negative = inhibition, hits mostly inhibitors; Gai1:RGS12 GoLoco peptide FP, rhodamine, 10 min; P63096; hit rate 0.44% among 230,000; AID 880; active = well fitted inhibition curve with a large enough effect, not every such curve was filed as active; inactive = no such curve, though single readings can be large or run the other way; note: % is set by controls: 0 for no effect and ±100 for the full control effect; nearly all actives have a fitted effect of over 30% in size; many of its hits are not listed in these tables
* = called active by the depositor; i = inactive; ? = inconclusive; nt = not tested or not shown; & = joins results of further samples; ! = not confirmed by another sample; [ ] = remark or other dose. Unless noted, calls come from the whole dose curve; as a rule, active = well fitted inhibition curve with a large enough effect (not every such curve was filed as active); inconclusive = small, poorly fitted or top-dose-only effect, or another doubt; inactive = no such curve, though single readings can be large or run the other way. Potency is the fitted concentration of half-maximal effect. The list is partial. The share of hits here may be higher or lower than overall.

Abbreviations: A = Lamin A splicing; B = RECQ1 helicase; C = SMN2 splice up; D = KDM4E inh; E = ALDH1A1 inh; F = RGS12 GoLoco inh
#1 Oc1ccc(OCc2ccccc2)cc1
  A: ?	B: -9.8%[25.9 µM]	C: 4.4%[20.6 µM]	D: -0.7%[25.5 µM]	E: 5.3%[20.9 µM]	F: -3.7%[21.6 µM]
#2 CC(=O)Nc1ccc(OCC(O)CNC(C)C)cc1 (stereo not drawn)
  A: nt	B: i	C: 3.8%	D: nt	E: -7.3%	F: -0.3%
#3 CC1=C(/C=C/C(C)=C/C=C/C(C)=C/C(=O)O)C(C)(C)CCC1
  A: ?	B: ?	C: -19.6%&0.7%&3.6%	D: -2.3%&-8.5%&-16.8%	E: ?	F: 8.0%&0.3%&12.3%&8.1%&-1.0%
#4 OC[C@@H]1O[C@@H](O)[C@H](O)[C@H](O)[C@@H]1O
  A: nt	B: -3.4%	C: nt	D: nt	E: nt	F: nt
#5 COc1ccc(CCC(=O)c2c(O)cc(OC3OC(CO)C(O)C(O)C3O[C@@H]3OC(C)C(O)C(O)C3O)cc2O)cc1O (stereo partly drawn)
  A: nt	B: i	C: 1.4%	D: -3.3%	E: ?	F: 13.2%
#6 COc1cc(/C=C/C(=O)O)ccc1O
  A: nt	B: -1.0%	C: -0.1%	D: ?	E: -2.9%	F: 2.5%
#7 CC1=C(\C=C/C(C)=C/C=C\C(C)=C\C(=O)O)C(C)(C)CCC1
  A: ?	B: 7.1%	C: 0.7%	D: -1.5%	E: 35.5µM*!	F: 1.5%
#8 CCN1/C(=C/C=C/C=C/c2sc3ccccc3[n+]2CC)Sc2ccccc21
  A: ?	B: ?	C: -90.2%[inhibitor]	D: 22.4µM*	E: ?	F: -97.6%
#9 CC1CN(c2c(F)c(N)c3c(=O)c(C(=O)O)cn(C4CC4)c3c2F)CC(C)N1 (stereo not drawn)
  A: ?	B: 6.6%	C: nt	D: nt	E: 8.3%	F: 2.9%
#10 Cc1ccc(Cl)cc1NC(=O)c1cc2ccccc2cc1O
  A: ?	B: i	C: nt	D: 22.4µM*	E: 6.5%	F: 12.7%

Five consecutive compounds from above:
Abbreviations: A = Lamin A splicing; B = RECQ1 helicase; C = SMN2 splice up; D = KDM4E inh; E = ALDH1A1 inh; F = RGS12 GoLoco inh
#6 COc1cc(/C=C/C(=O)O)ccc1O
  A: nt	B: -1.0%	C: -0.1%	D: ?	E: -2.9%	F: 2.5%
#7 CC1=C(\C=C/C(C)=C/C=C\C(C)=C\C(=O)O)C(C)(C)CCC1
  A: ?	B: 7.1%	C: 0.7%	D: -1.5%	E: 35.5µM*!	F: 1.5%
#8 CCN1/C(=C/C=C/C=C/c2sc3ccccc3[n+]2CC)Sc2ccccc21
  A: ?	B: ?	C: -90.2%[inhibitor]	D: 22.4µM*	E: ?	F: -97.6%
#9 CC1CN(c2c(F)c(N)c3c(=O)c(C(=O)O)cn(C4CC4)c3c2F)CC(C)N1 (stereo not drawn)
  A: ?	B: 6.6%	C: nt	D: nt	E: 8.3%	F: 2.9%
#10 Cc1ccc(Cl)cc1NC(=O)c1cc2ccccc2cc1O
  A: ?	B: i	C: nt	D: 22.4µM*	E: 6.5%	F: 12.7%

New compounds follow
Abbreviations: A = Lamin A splicing; B = RECQ1 helicase; C = SMN2 splice up; D = KDM4E inh; E = ALDH1A1 inh; F = RGS12 GoLoco inh
#11 OCCNCCO
  A: nt	B: 1.9%	C: 13.0%	D: nt	E: ?	F: -5.5%
#12 CCN(CC)CCOC(=O)[C@@H](c1ccccc1)C1CCCCC1
  A: ?	B: 1.3%[25.9 µM]	C: -1.8%[20.6 µM]	D: 0.0%[25.5 µM]	E: -14.0%[20.9 µM]	F: -4.1%[21.6 µM]
#13 CC(=O)O[C@@H](C)C[N+](C)(C)C
  A: ?	B: -5.2%[25.9 µM]	C: -1.2%[20.6 µM]	D: 4.8%[25.5 µM]	E: -4.0%[20.9 µM]	F: 8.8%[21.6 µM]
#14 CC(=O)Oc1ccccc1C(=O)O
  A: -5.9%	B: -8.8%&-1.5%&-3.6%&-3.4%	C: 20.1%&1.4%&1.7%&-4.8%	D: ?	E: 6.3%&-1.4%&-13.7%	F: 9.6%&1.9%&8.6%&-19.7%
#15 CC(C)(C)CC(C)(C)c1ccc(OCCO)cc1
  A: ?	B: -7.2%	C: -63.6%[inhibitor]	D: nt	E: -5.4%	F: -16.4%
#16 O=C(OCc1ccccc1)c1ccccc1
  A: nt	B: -13.6%	C: -17.5%	D: 3.8%	E: 1.8%	F: -3.6%
#17 OC[C@H]1OC(O)[C@H](O)[C@@H](O)[C@H]1O (stereo partly drawn)
  A: nt	B: -3.5%	C: nt	D: nt	E: nt	F: nt
#18 CN(C)C=O
  A: nt	B: -0.9%&-8.8%	C: 1.6%&-4.8%	D: nt	E: 15.4%&-12.0%	F: -0.8%&9.2%
#19 COC(=O)Nc1nc2ccc(C(=O)c3ccccc3)cc2[nH]1
  A: ?	B: -4.0%[25.9 µM]	C: 23.2%	D: -18.1%	E: 20.6%	F: 1.4%
#20 Cn1c(=O)c2c(ncn2C)n(C)c1=O
  A: -6.0%&-14.0%	B: -7.2%&2.3%&-0.8%&-2.3%&-7.9%	C: 0.4%&-6.4%&-1.8%&-8.2%	D: 0.3%&4.9%&-8.5%&-0.4%	E: -0.3%&7.6%&3.7%&5.9%&-0.9%	F: 4.0%&-8.1%&-11.1%&13.3%&3.8%&4.1%
#21 O=C1NCN(c2ccccc2)C12CCN(CCCC(c1ccc(F)cc1)c1ccc(F)cc1)CC2
  A: ?	B: -19.3%	C: -85.2%[inhibitor]	D: -1.0%	E: -2.8%	F: 13.6%
#22 CS(=O)(=O)c1ccc(C(=O)OCC(=O)NC23CC4CC(CC(C4)C2)C3)cc1[N+](=O)[O-]
  A: ?	B: -3.5%	C: 10.6%	D: -0.6%	E: -1.8%	F: -0.2%
#23 CC(=O)OC1CC2CCC1(C)C2(C)C (stereo not drawn)
  A: ?	B: -6.4%&-10.3%	C: nt	D: nt	E: 6.2%	F: 1.5%
#24 CN1C(=O)CCC1c1cccnc1 (stereo not drawn)
  A: -16.6%	B: -1.1%&-1.1%	C: 14.8%&-6.1%&-2.3%	D: -29.1%&6.4%	E: -8.1%&-4.6%&10.9%&8.9%	F: 9.6%&5.7%&-0.8%&7.3%
#25 O=C(O)c1cccc(Cl)c1Cl
  A: nt	B: -1.0%	C: -2.0%	D: nt	E: 3.8%	F: 1.5%
#26 O=C(Nc1cccc(C2=NCCN2)c1)Nc1cccc(C2=NCCN2)c1
  A: ?	B: nt	C: nt	D: nt	E: nt	F: -1.7%
#27 COc1ccc2c(c1OC)C(=O)O[C@H]2C1c2c(cc3c(c2OC)OCO3)CCN1C (stereo partly drawn)
  A: nt	B: -14.7%	C: 3.5%	D: -1.5%&-5.9%	E: 3.0%&7.7%	F: 3.9%&6.7%
#28 CC(=O)O[C@]1(C(C)=O)CC[C@H]2[C@@H]3C[C@H](C)C4=CC(=O)CC[C@]4(C)[C@H]3CC[C@@]21C
  A: ?	B: -1.1%&-2.0%	C: -55.7%&-7.4%	D: 7.7%	E: 31.6µM*!	F: 17.9%&-3.6%
#29 Oc1ccc(Cl)c2cccnc12
  A: ?	B: -9.2%	C: 1.0%	D: ?	E: 0.1%	F: 19.9%&4.8%
#30 CCOC(=O)C1=CC2(CC)CCCN3CCc4c(n1c1ccccc41)C32 (stereo not drawn)
  A: nt	B: -13.7%&0.9%	C: -2.4%	D: nt	E: -0.7%	F: -3.7%
#31 CC(C)(C)NC[C@H](O)COc1cccc2c1CCC(=O)N2
  A: ?	B: i	C: -4.4%[20.6 µM]	D: 4.8%[25.5 µM]	E: 1.1%[20.9 µM]	F: 2.9%[21.6 µM]
#32 CCN(CC)c1ccc(N)cc1
  A: nt	B: ?	C: -17.3%	D: nt	E: 3.16µM*	F: 167.3%[activator]

Structures from the list above that contain a halogen (five):
Abbreviations: A = Lamin A splicing; B = RECQ1 helicase; C = SMN2 splice up; D = KDM4E inh; E = ALDH1A1 inh; F = RGS12 GoLoco inh
#9 CC1CN(c2c(F)c(N)c3c(=O)c(C(=O)O)cn(C4CC4)c3c2F)CC(C)N1 (stereo not drawn)
  A: ?	B: 6.6%	C: nt	D: nt	E: 8.3%	F: 2.9%
#10 Cc1ccc(Cl)cc1NC(=O)c1cc2ccccc2cc1O
  A: ?	B: i	C: nt	D: 22.4µM*	E: 6.5%	F: 12.7%
#21 O=C1NCN(c2ccccc2)C12CCN(CCCC(c1ccc(F)cc1)c1ccc(F)cc1)CC2
  A: ?	B: -19.3%	C: -85.2%[inhibitor]	D: -1.0%	E: -2.8%	F: 13.6%
#25 O=C(O)c1cccc(Cl)c1Cl
  A: nt	B: -1.0%	C: -2.0%	D: nt	E: 3.8%	F: 1.5%
#29 Oc1ccc(Cl)c2cccnc12
  A: ?	B: -9.2%	C: 1.0%	D: ?	E: 0.1%	F: 19.9%&4.8%
